Vaccinia mCherry: vaccinia inhibition (mCherry reporter); Potency, µM (titrated, usually from 36.5 µM), inactives show top-dose activity change, negative = inhibition, actives largely listed as inhibitors; Vaccinia virus mCherry reporter infection, fluorescence; about a quarter of the inactives have no number; 0.63% of 310,000 active; active = well fitted inhibition curve with a large enough effect; inconclusive = small, poorly fitted or top-dose-only effect; inactive = no such curve, though single readings can be large or run the other way; tested in A549 cells; note: nearly all actives have a fitted effect of over 35% in size; inactives centre near -10
VACV Venus inh: vaccinia inhibition (Venus reporter); Vaccinia virus Venus reporter expression, fluorescence; Potency, µM (series often up to 36.5 µM), inactives show at the highest dose activity change, negative = inhibition, usual class: inhibitors; AID 720580; 0.46% of 330,000 active; active means well fitted inhibition curve with a large enough effect; inconclusive means small, poorly fitted or top-dose-only effect; inactive means no such curve, though single readings can be large or run the other way; tested in A549 cells; note: nearly all actives have a fitted effect of over 30% in size; inactives centre near -10
* hit, by the source's call; i = inactive; u = inconclusive; x = no result given; [ ] = dose if it differs, or a comment. % is set by controls: 0 for no effect and ±100 for the full control effect; potency is the fitted concentration of half-maximal effect.

SMILES	Vaccinia mCherry	VACV Venus inh
COC(=O)Cc1c(C)c2ccc(O)c(CN3CCCC(C)C3)c2oc1=O (centres undefined)	i	-14%
Cn1cnnc1SCC(=O)Nc1c(F)cc(F)cc1Br	i	-8%
CC(=O)Nc1ccc(OC/C=C(\C)Cl)cc1	-1%	4%
COc1cccc(NP(=O)(Oc2ccc(Cl)cc2)Oc2ccc(Cl)cc2)c1	u	u
Cn1c(NC(=O)/C=C/c2c(F)cccc2Cl)cc(=O)n(C)c1=O	-8%	-13%
COc1ccc(CCN(C(=O)C(F)(F)F)C(C(=O)NC2CCCCC2)c2ccc(C)s2)cc1 (centres undefined)	i	-6%
S=c1nc[nH]c2c1[nH]c1ccccc12	-2%	-16%
Cc1ccc(-c2nc3ccccc3c(=O)n2-c2nccs2)cc1	-14%	-7%
COc1ccc(NC2CCCN(C(=O)c3ccc4[nH]c(C)c(C)c4c3)C2)cc1 (centres undefined)	u	-12%
O=C(NC(=O)N1CCCCCC1)c1ccc(Cl)cc1	i	-19%
CNC(=O)CNC(=O)Nc1ccc(Cl)c(Cl)c1	-1%	-20%
Cc1cccc(C2=NN(c3ccc(Br)cc3)[C@@H](C(=O)N3CCOC3=O)[C@@H]2c2ccc(F)cc2)c1	-14%	u
Cc1cc(C)c(S(=O)(=O)N2CCN(C(=O)CCOc3ccccc3C)CC2)c(C)c1	-12%	2%
Cc1cc(S(=O)(=O)n2ccnc2C(C)C)cc([N+](=O)[O-])c1C	4%	-1%
CCCS(=O)(=O)N1CCCC(C(=O)NCCN(Cc2ccccc2)C(C)C)C1 (centres undefined)	-29%	-23%
Cc1ccc(OCCOC(=O)c2c(-c3ccccc3)noc2C)cc1	-15%	-18%
CN(C)C(=O)c1ccc(-c2cncnc2NCc2cccs2)cc1	31%[activator]	90%[activator]
CC(=O)c1ccc(NC(=O)CN2CCC(NC(=O)C3CCCCC3)CC2)cc1	i	-10%
CCOc1ccc(C(=O)NCC(=O)OCC(=O)NC2CCCC2)cc1	i	-11%
CCN(CC)CCc1c(C)[nH]c(C(=O)OCc2ccccc2)c1C	i	-17%
Cc1ccc(NC(=O)CS(=O)CC(=O)N(CC(=O)NC2CCCC2)c2ccc3c(c2)OCCO3)cc1 (centres undefined)	-15%	-7%
O=c1[nH]c2c(c(=O)n1Cc1ccccc1)CCC2	x	-27%
CC(C)(C)n1nnnc1C(c1cc2ccccc2o1)N1CCOCC1 (centres undefined)	0%	4%
O=c1oc2c(F)cc(F)cc2cc1S(=O)(=O)c1ccc(F)cc1	4%	6%
S=C(Nc1ccc2c(c1)OCCO2)Nc1ccccc1Cl	u	-16%
CC(=O)OCC(=O)Nc1ccccc1OC(F)F	i	-10%
O=C(Nc1ccccc1)C1=C[C@H](c2coc3ccccc3c2=O)C[C@H](OCc2ccc(CO)cc2)O1	13%	-14%
CCOc1ccccc1NC(=O)NNS(=O)(=O)c1ccc([N+](=O)[O-])cc1	i	-9%
CN(C)c1ccc([N+](=O)[O-])cc1C(=O)NCC(c1ccco1)N(C)C (centres undefined)	-26%	-9%
O=C(CCn1cnc2onc(-c3ccc(F)cc3)c2c1=O)Nc1cccc(C(F)(F)F)c1	-16%	-13%
COc1ccc(OCCN2CCC(C(=O)NC(c3ccc(Cl)cc3)c3cnccn3)CC2)cc1 (centres undefined)	i	-9%
CCOC(=O)CC(NC(=O)c1ccccc1)c1ccc(OC)cc1 (centres undefined)	-1%	-5%
O=C(Cc1cccs1)Nc1ccc(-c2nnc(-c3ccccc3)o2)cc1	-7%	1%
CCc1ccc(-n2c(=O)c3sc4ccccc4c3n(CC(=O)NCc3ccccc3)c2=O)cc1	-9%	-15%
Cc1ccc(C)c(NNC(N)=S)c1	5%	-5%
Cc1cnc(C)c(-c2cccc3c2OC(CNC(=O)C2(c4ccc(Cl)cc4)CC2)C3)n1 (centres undefined)	-10%	-5%
CC1(C)OC(=O)C2=C(C[C@@H](CCc3ccccc3)O[C@@H]2c2ccc(F)cc2)O1	-10%	-14%
O=c1c2ccccc2sn1-c1ccc(Cl)c(S(=O)(=O)N2CCOCC2)c1	-28%	-20%
Cc1cccc(CC2S/C(=N/c3ccccn3)NC2=O)c1 (centres undefined)	x	-18%
CN(C)/C=N/NC(=O)C1Cc2c(ccc3ccccc23)O1 (centres undefined)	i	-17%
CN(CC(=O)NC1CCCC1)S(=O)(=O)c1cnc[nH]1	u	-1%
Cc1cc(N2CCN(c3ccc(F)cc3)CC2)nc(-c2ccccc2)n1	x	-20%
Cc1cccc(C)c1OCC(=O)Nc1ncn[nH]1	i	-2%
CC(=O)/C(N=Nc1ccc(C(=O)O)cc1)=C(\C)O	1%	-4%
COc1ccccc1C(=O)COC(=O)c1cccc(S(=O)(=O)N2CCCC2)c1	-7%	-14%
CCC1Oc2ccccc2N(CC(=O)NCCCN2CCOCC2)C1=O (centres undefined)	i	-7%
COc1ccc(/C=N/NC(=O)c2c(Br)cnn2C)c2ccccc12	-3%	-18%
CCCC(=O)Nc1cccn(Cc2ccccc2Br)c1=O	-13%	-9%
O=C(CS(=O)CC(=O)Nc1ccc(Cl)cc1)NCC1OCCc2ccccc21 (centres undefined)	-17%	-10%
O=C(c1cccc(S(=O)(=O)Nc2ccccc2Cl)c1)N1CCC1	i	-5%
Cn1c(SCC(=O)N2CCOCC2)nnc1-c1ccco1	-12%	-6%
Nc1nc(Nc2cccc(F)c2)nc(N2CCOCC2)c1[N+](=O)[O-]	-23%[7.34 µM]	u
O=C(Nc1ccccc1OC(F)F)c1ccc(S(=O)(=O)N2CCCC2)cc1	-3%	-11%
CCN=C1SC(CC(=O)NCC)C(=O)N1CC (centres undefined)	-9%	-3%
Cc1[nH]c2ccc(OC(F)(F)F)cc2c1CCNCc1cccc([N+](=O)[O-])c1	u	-24%
CNCC(C)COc1ccccc1OCc1ccccc1 (centres undefined)	i	-10%
O=C1OC(c2ccccc2)=CC1=Cc1ccccc1O	i	-14%
c1ccc(Cc2cc[n+](Cc3ccccc3)cc2)cc1	u	-17%
Nc1ncnc2c1ncn2CCN1CCCCC1	x	-13%
CCc1[nH]c(C(=O)O)c(C)c1C(=O)OC	i	-4%
Continuation:
SMILES	Vaccinia mCherry	VACV Venus inh
CCOC(=O)CC(=O)CSc1nc(C)cc(-c2cccnc2)c1C#N	-10%	-11%
CCOc1ccc(C2C3=C(CCCC3=O)N(CC(=O)O)C3=C2C(=O)CCC3)cc1	i	-9%
CCOc1ccccc1CNC(=O)CCc1c(C)nn(-c2ccc(N3CCCCC3)nn2)c1C	-11%	-12%
CN1CCN(c2ccc(C(=O)c3ccc(Br)cc3)cc2[N+](=O)[O-])CC1	-18%	-19%
CC(=O)Nc1ccc(OCC[n+]2cccc(C(N)=O)c2)cc1	-8%	-5%
CCCCc1ccc(NC(=O)N2CCNC(=O)C2CC(=O)Nc2ccsc2C(=O)OC)cc1 (centres undefined)	-11%	-4%
COc1ccc(-n2nnnc2-c2nc3ccccc3s2)cc1	-18%	33%[activator]
Cc1cc(N2CCCCC2)nc2ccc(NC(=O)/C=C/c3ccc(OCCC(C)C)cc3)cc12	-19%	-20%
Cc1cccc(NC(=O)CN2CCN(C(=O)C3CCCO3)CC2)c1C (centres undefined)	-1%	-6%
Fc1ccccc1Nc1nc2ccccc2o1	u	-20%
C[C@H]1CN([C@@H](C)CO)C(=O)CCCn2nncc2CO[C@@H]1CN(C)C(=O)Nc1ccnc(N2CCOCC2)c1	-3%	-18%
CCC(=O)Nc1cccc(-c2nc3ccc(C)cc3o2)c1	-5%	-17%
Cc1ccc(C(=O)N/C(=C\c2ccco2)C(=O)NCCc2c[nH]c3ccccc23)cc1	-14%	-27%
COc1ccc(/C=N/Nc2nc(C)c([N+](=O)[O-])c(N(C)c3ccccc3)n2)cc1OC	i	-10%
CC1CCCN(C(=O)COC(=O)c2cccc(NS(=O)(=O)c3ccccc3)c2)C1 (centres undefined)	-5%	-24%
O=C(NCc1ccc(OC(F)(F)F)cc1)c1ccc2c(c1)S(=O)(=O)c1ccccc1C2=O	-9%	-16%
O=C(CSc1nc2ccccc2[nH]1)Nc1ccccc1F	-15%	-12%
CCCn1c(COc2cccc(C)c2)nc2ccccc21	3%	2%
CCCCNC(=O)c1nc(C2CCN(S(=O)(=O)c3cccc(C(F)(F)F)c3)CC2)oc1-c1cccc(C(F)(F)F)c1	28%	-3%
COc1cc(/C=C(\NC(C)=O)C(=O)Nc2ccccc2C)ccc1OC(C)=O	-16%	-6%
CCOC(=O)C1=CCN(S(=O)(=O)c2ccc(C)cc2)[C@H]1c1ccccc1Cl	i	2%
COCCNC(=O)c1cc(-c2ccccc2C)n(CC2CC(c3cccc([N+](=O)[O-])c3)=NO2)n1 (centres undefined)	0%	-14%
C=CCc1ccc(OCC(O)COc2ccc(CC=C)cc2OC)c(OC)c1	-23%	-17%
CCc1c(O)nc2ccccn2c1=O	i	-6%
O=C(NC1=C(Nc2ccc(Cl)cc2)C(=O)c2ccccc2C1=O)c1ccccc1	28µM*	u
CCOC(=O)c1ccc(NC(=O)CSc2ccc(-c3cccnc3)nn2)cc1	-5%	-21%
CCCCC(=O)NC(=S)Nc1ccc(Cl)c(C(=O)O)c1	10%	2%
CCN(CC)C(=O)n1c(Cc2ccccc2)nc2ccccc21	-18%	-11%
COc1cc(/C=C/c2cc(C(F)(F)F)[nH]c(=O)n2)cc(OC)c1OC	u	u
O=C(O)c1cc(-c2cccs2)nn1-c1ccc(F)cc1	i	-6%
O=C(Nc1cccc(C(=O)N2CCCC2)c1)C1CCC1	-14%	-6%
COc1ccc(OCCOc2ccc(C)nc2[N+](=O)[O-])cc1	i	0%
O=C(NNS(=O)(=O)c1ccc2ccccc2c1)c1cc(-c2ccccn2)nc2ccccc12	i	-6%
O=C(O)C(=Cc1cccc([N+](=O)[O-])c1)c1ccc(Cl)cc1	-12%	2%
COc1ccc(NC(=O)CSc2nc(N)c(NC(=O)c3ccccc3F)c(=O)[nH]2)cc1	i	-4%
Cc1ccc(NC(=S)Nc2ccc(S(=O)(=O)Nc3ncccn3)cc2)c(C)c1	-6%[7.34 µM]	-5%[7.34 µM]
Cc1ccc(CN2C(=O)C(C)(C)Oc3ccc(C(=O)N4CCCCC4)cc32)cc1	i	-21%
C/C(=N/OCc1ccc(Br)cc1)c1ccccn1	i	3%
O=C(N/C(=C\c1ccccc1)C(=O)N1CCN(CCO)CC1)c1ccccc1	i	-6%
CCN1CCSc2ccc(C(=O)NCc3ccccc3C)cc21	i	-10%
CCN(CC(=O)Nc1ccccc1OC)C(=O)/C=C/c1cccs1	i	-2%
Cc1ccnc(NC(=O)c2cc(-c3ccc(Cl)s3)nc3ccccc23)c1	-10%	-1%
c1ccc(-c2noc(C3CCC3)n2)nc1	i	2%
CCC(C)NC(=O)CN(c1cc(C)ccc1OC)S(C)(=O)=O (centres undefined)	-10%	-9%
O=C1CC(c2nc3ccccc3n2Cc2c(F)cccc2Cl)CN1c1cccc(C(F)(F)F)c1 (centres undefined)	0%	-4%
CCS(=O)(=O)n1nc(-c2ccco2)nc1NCc1ccc(C(C)C)cc1	-18%	-3%
CC1=C(C(=O)N2CCCCCC2)CC(CC(=O)NCCN2CCOCC2)C(=O)N1Cc1ccc(C(C)(C)C)cc1 (centres undefined)	-16%	-12%
CC1Sc2ccc(S(=O)(=O)N3CCC(C(=O)N4CCN(C)CC4)CC3)cc2NC1=O (centres undefined)	-22%	-19%
COC(=O)c1ccc2nc(-c3ccc(F)cc3)c(Cc3ccccc3C(F)(F)F)n2c1	-7%	6%

Some of the entries so far, bar-delimited:
Molecule | Vaccinia mCherry | VACV Venus inh
O=C(O)c1cc(-c2cccs2)nn1-c1ccc(F)cc1 | i | -6%
O=C(Nc1cccc(C(=O)N2CCCC2)c1)C1CCC1 | -14% | -6%
COc1ccc(OCCOc2ccc(C)nc2[N+](=O)[O-])cc1 | i | 0%
O=C(NNS(=O)(=O)c1ccc2ccccc2c1)c1cc(-c2ccccn2)nc2ccccc12 | i | -6%
O=C(O)C(=Cc1cccc([N+](=O)[O-])c1)c1ccc(Cl)cc1 | -12% | 2%
COc1ccc(NC(=O)CSc2nc(N)c(NC(=O)c3ccccc3F)c(=O)[nH]2)cc1 | i | -4%
Cc1ccc(NC(=S)Nc2ccc(S(=O)(=O)Nc3ncccn3)cc2)c(C)c1 | -6%[7.34 µM] | -5%[7.34 µM]
Cc1ccc(CN2C(=O)C(C)(C)Oc3ccc(C(=O)N4CCCCC4)cc32)cc1 | i | -21%
C/C(=N/OCc1ccc(Br)cc1)c1ccccn1 | i | 3%
O=C(N/C(=C\c1ccccc1)C(=O)N1CCN(CCO)CC1)c1ccccc1 | i | -6%
CCN1CCSc2ccc(C(=O)NCc3ccccc3C)cc21 | i | -10%
CCN(CC(=O)Nc1ccccc1OC)C(=O)/C=C/c1cccs1 | i | -2%
Cc1ccnc(NC(=O)c2cc(-c3ccc(Cl)s3)nc3ccccc23)c1 | -10% | -1%
c1ccc(-c2noc(C3CCC3)n2)nc1 | i | 2%
CCC(C)NC(=O)CN(c1cc(C)ccc1OC)S(C)(=O)=O (centres undefined) | -10% | -9%
O=C1CC(c2nc3ccccc3n2Cc2c(F)cccc2Cl)CN1c1cccc(C(F)(F)F)c1 (centres undefined) | 0% | -4%
CCS(=O)(=O)n1nc(-c2ccco2)nc1NCc1ccc(C(C)C)cc1 | -18% | -3%
CC1=C(C(=O)N2CCCCCC2)CC(CC(=O)NCCN2CCOCC2)C(=O)N1Cc1ccc(C(C)(C)C)cc1 (centres undefined) | -16% | -12%
CC1Sc2ccc(S(=O)(=O)N3CCC(C(=O)N4CCN(C)CC4)CC3)cc2NC1=O (centres undefined) | -22% | -19%
COC(=O)c1ccc2nc(-c3ccc(F)cc3)c(Cc3ccccc3C(F)(F)F)n2c1 | -7% | 6%
